Autofluor counter – compound fluorescence in toxin protease inhibitor counterscreen | 360,000 compounds, 3.1% hits | fluorescence intensity (test concentration not listed) | compound autofluorescence counterscreen, microsphere flow cytometry; stronger effect = higher value;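 active means at least 3 SD above the mean of all compounds, about 16000 in these data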;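 further: 100 nL of 1 mM stock went into each well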
RN4220 kill – growth inhibition of S. aureus RN4220, primary screen, OD600; inhibition, % (test concentration not listed); 16 h; 330,000 compounds, 0.33% hits;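 active means z-score of -3 or lower and OD600 up to 0.18 on both plates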;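 further: plate controls were untreated cells for no effect and reference antibiotic for full effect; stock transfer was 100 nL into about 80 µL; one replicate is shown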
BJeLR lethal – MLPCN primary cell-based screen for lethality selective to Ras in HRASV12 cells | inhibition, % (concentration not given with the values) | BJeLR (HRASV12) viability, CellTiter-Glo ATP luminescence, 48 h; reference of the scale not given here | 300,000 compounds, 0.17% hits;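 active means replicate mean above 50%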;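 further: 50 nL library stock added to about 25 µL; numbers are from one replicate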
Mtb hypoxia inh – PubChem AID 1159583. fluorescence inhibition, % (concentration not given with the values). 300,000 compounds, 0.1% hits. M. tuberculosis hypoxia-regulated fluorescent reporter, fluorescence;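 active means 35 to 45% if threefold the growth effect, above 45% if 1.5-fold the growth effect; inactive means the rest, general growth blockers included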;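 further: wells of about 50 µL received 100 nL stock; 0% = vehicle wells and 100% = reference inhibitor wells; whole bacteria with a GFP reporter of the hypoxia response; strong numbers were not always called active; many hits fall short of the cut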
PrP UTR inh – inhibition of PrP 5' UTR reporter expression | inhibition, % (no concentration beside the values) | 340,000 compounds, 0.35% hits | cell-based PrP 5' UTR mRNA reporter, plate reader | AID 488862, 2010;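 active means every replicate at 50% or more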;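 further: 0 = median of the neutral control wells; tested in H4 reporter cells; numbers are from one replicate; inactives centre near -14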
Sa ugtP lethal – growth inhibition of ugtP-null S. aureus, primary screen, RN4220 ugtP deletion, OD600; 330,000 compounds, 0.54% hits; 16 h; some inactives read as strong as hits; growth inhibition, % (test concentration not listed);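 active means z-score under -3 and OD600 up to 0.15 on both plates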;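 further: plate controls were untreated wells for no effect and antibiotic for full effect; wells of about 80 µL received 100 nL stock; the first replicate is given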
Mtb hypoxia inh growth – second read-out of Mtb hypoxia inh, no call of its own (marks repeat the call); growth inhibition, %; measured here: M. tuberculosis growth (absorbance);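 0% = vehicle and 100% = reference antibiotic; read after six days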
The depositor's hits bear a star; · = no result given.

Compound | RN4220 kill | Sa ugtP lethal | Mtb hypoxia inh | Mtb hypoxia inh growth | Autofluor counter | BJeLR lethal | PrP UTR inh
CN(C(=O)c1cccc(C#N)c1)c1nnc(C2CCOC2)s1 (centres undefined) | 0.7 | 5 | · | · | 2729 | -5 | -9
O=C(O)c1ccccc1NS(=O)(=O)c1ccccc1C(F)(F)F | 4.0 | -2 | 13 | 7 | 8200 | -1 | -18
C/C=C/c1ccc(OCC(=O)OCC)c(OC)c1 | -2.9 | -1 | -6 | -7 | 4593 | -2 | 14
CC(C)(C)C(=O)Nc1ccc2oc(-c3cc(F)c(F)cc3Cl)nc2c1 | 12 | -4 | 10 | 8 | 3436 | 4 | -87
NC(=O)c1ccc[n+](CC(=O)c2ccc(NC(=O)c3ccccc3)cc2)c1 | 1.3 | 10 | 11 | 10 | 3624 | -2 | -11
COc1ccccc1/C=C/C(=O)NC(=S)N(C)C1CCCCC1 | 5.0 | 11 | 12 | 5 | 9965 | 1 | -24
CCn1c(CCCc2ccc(OC)c(C)c2)n[nH]c1=S | 6.5 | 0 | 12 | 11 | 4481 | -1 | -10
COc1ccc(NC2=NC(C)(CO)CS2)cc1 (centres undefined) | 5.2 | 5 | 11 | 5 | 2714 | -7 | -6
COc1ccccc1C(=O)NC(=O)COc1ccc([N+](=O)[O-])cc1 | 1.4 | 1 | -3 | -3 | 5387 | 6 | -13
O=C(CCn1cnc2ccccc21)N/N=C/c1ccc(O)cc1 | · | · | · | · | 2147 | -2 | -19
COc1ccc(Cl)cc1NC(=O)CN1CCCC1 | 3.0 | -2 | 1 | -3 | 3433 | -1 | -12
Cc1cc(C)n2nc(C(=O)N/N=C/c3ccccc3Cl)nc2n1 | · | · | · | · | 3301 | 2 | -13

Next part
Compound | RN4220 kill | Sa ugtP lethal | Mtb hypoxia inh | Mtb hypoxia inh growth | Autofluor counter | BJeLR lethal | PrP UTR inh
COc1cccc(C(C(=O)NC2CCCC2)N(Cc2cccnc2)C(=O)Cc2cccs2)c1 (centres undefined) | 0.8 | -1 | 7 | -5 | 3916 | -7 | -23
C=CCOC(=O)/C(=C/c1ccco1)NC(=O)/C=C/c1ccccc1 | 1.5 | 7 | · | · | 4919 | 4 | -14
O=C(O)c1cccnc1SC1CC(=O)N(CCc2ccccc2)C1=O (centres undefined) | 3.2 | 8 | 7 | 8 | 24601* | -15 | -27
NC(=O)C1CC2(CC(c3cccc(NC(=O)CC(c4ccccc4)c4ccccc4)c3)=NO2)CN1C(=O)COc1ccc(Cl)cc1 (centres undefined) | -8.3 | -2 | -11 | 2 | · | · | ·
CCc1cccc(C)c1NC(=O)CNCc1ccccc1 | 0.2 | 3 | -4 | -4 | 2447 | 7 | -2
O=C(CN1CCN(Cc2ccccc2Cl)CC1)NN=Cc1ccco1 | 6.1 | 0 | 14 | 4 | · | · | ·
Cc1ccc2nc(/C(C#N)=C\c3ccc([N+](=O)[O-])o3)[nH]c2c1 | 99* | 99* | · | · | 13703 | 18 | -25
O=C(CCCc1nc2ccccc2s1)NC(c1ccccc1)c1ccccc1 | 4.0 | 8 | 8 | 3 | 2648 | -1 | -16
O=c1[nH]c(/C(Cl)=C/c2c(F)cccc2Cl)nc2cc(Cl)ccc12 | 0.5 | -2 | 2 | 4 | 9700 | 5 | -20
Cc1ccc(N2CC(c3nc4ccccc4n3C)CC2=O)cc1 (centres undefined) | 2.1 | 4 | 13 | 6 | 4282 | 5 | -11
C/C(=C1\SC(N2CCOCC2)=NC1=O)c1ccccc1 | 3.6 | 0 | -1 | 5 | 9566 | 1 | -20
Cc1ccc(SCCN2CCC(O)CCC2=O)cc1 (centres undefined) | 2.8 | 4 | 2 | 6 | 3005 | -11 | -19

Next section; it opens with the 7 that closed the last part.
Compound | RN4220 kill | Sa ugtP lethal | Mtb hypoxia inh | Mtb hypoxia inh growth | Autofluor counter | BJeLR lethal | PrP UTR inh
O=C(CN1CCN(Cc2ccccc2Cl)CC1)NN=Cc1ccco1 | 6.1 | 0 | 14 | 4 | · | · | ·
Cc1ccc2nc(/C(C#N)=C\c3ccc([N+](=O)[O-])o3)[nH]c2c1 | 99* | 99* | · | · | 13703 | 18 | -25
O=C(CCCc1nc2ccccc2s1)NC(c1ccccc1)c1ccccc1 | 4.0 | 8 | 8 | 3 | 2648 | -1 | -16
O=c1[nH]c(/C(Cl)=C/c2c(F)cccc2Cl)nc2cc(Cl)ccc12 | 0.5 | -2 | 2 | 4 | 9700 | 5 | -20
Cc1ccc(N2CC(c3nc4ccccc4n3C)CC2=O)cc1 (centres undefined) | 2.1 | 4 | 13 | 6 | 4282 | 5 | -11
C/C(=C1\SC(N2CCOCC2)=NC1=O)c1ccccc1 | 3.6 | 0 | -1 | 5 | 9566 | 1 | -20
Cc1ccc(SCCN2CCC(O)CCC2=O)cc1 (centres undefined) | 2.8 | 4 | 2 | 6 | 3005 | -11 | -19
CC(Nc1ncnc2ccccc12)c1ccccc1 (centres undefined) | · | · | · | · | 5250 | 9 | -27
COc1ccc(CNC(=O)COC(=O)c2ccc(S(=O)(=O)NCc3ccco3)cc2)cc1 | 3.6 | 1 | 4 | 3 | 3936 | · | -17
COc1cc(CC(=O)Nc2ccccc2N2CCCCC2)cc(OC)c1OC | 9.6 | 15 | 5 | 0 | 3577 | -22 | -10
NC(N)=NN=Cc1ccc(N2CCOCC2)cc1 | 2.2 | -6 | -8 | -7 | · | · | ·
CCOC(=O)C(C(=O)OCC)=C1OC(=O)c2ccccc21 | 6.4 | 7 | 8 | 6 | 23965* | -7 | -5
COc1ccc(C2=NN(C(=O)c3cccs3)C(c3ccccc3O)C2)cc1 (centres undefined) | -3.8 | 14 | 0 | 13 | 2488 | -17 | -14
CCc1ccc2[nH]c3nc(N/N=C/c4ccc(O)cc4O)nnc3c2c1 | · | · | · | · | 3494 | 26 | 17
CCOC(=O)CC1=NS(=O)(=O)c2ccccc2N1 | 0.1 | -7 | 0 | 9 | 8765 | 2 | -9
CCc1ccc(C2CC(c3ccc(C)cc3)n3nc(N)nc3N2)cc1 (centres undefined) | 3.3 | 3 | · | · | 4429 | · | -2
O=C1CCC(C(=O)N2CCCC(C(=O)c3ccc4c5c(cccc35)CC4)C2)=NN1 (centres undefined) | 5.9 | -3 | 8 | -2 | 2525 | -2 | -15
N#Cc1c(N)nc(SCC(=O)OCc2ccccc2)c(C#N)c1-c1ccco1 | 9.9 | -1 | 11 | 8 | 10628 | 2 | 0
Cc1ccccc1NC(=S)NC(NC(=O)COc1ccccc1)C(Cl)(Cl)Cl (centres undefined) | -3.1 | -4 | -3 | -6 | 4553 | -15 | -3

(more compounds)
Compound | RN4220 kill | Sa ugtP lethal | Mtb hypoxia inh | Mtb hypoxia inh growth | Autofluor counter | BJeLR lethal | PrP UTR inh
CCOC(=O)N1CCN(C(=O)/C=C/c2ccc(C(C)(C)C)cc2)CC1 | 5.0 | 7 | 16 | 8 | · | -1 | 10
COc1ccc(N2CCN(Cc3cc(OC)c(O)c([N+](=O)[O-])c3)CC2)cc1 | -1.2 | 6 | 6 | 1 | 2250 | -14 | -14
O=[N+]([O-])c1cccnc1N1CCCCC1 | 5.4 | 1 | 6 | 5 | 22095* | -13 | -12
Cc1ccc(S(=O)(=O)c2c(COC(=O)c3cccc(Cl)c3)c(-c3ccccc3)nn2C)cc1 | -2.4 | 13 | 9 | 9 | 3392 | -8 | -2
O=C(c1cc2c(s1)CCCCC2)N1CCN(c2ncccn2)CC1 | 3.1 | 6 | 1 | 0 | 7968 | 3 | 6
Cc1ccc(C=NNC(=O)CNC(=O)c2ccc(S(=O)(=O)N3CCCC3)cc2)o1 | 2.0 | 3 | -7 | 5 | · | · | ·
COc1ccc(NC(=O)COC(=O)CC2CCCCC2)cc1 | 1.2 | 4 | 2 | 3 | 4180 | · | -29
CCOc1cc(/C=C(\C#N)c2nc3ccccc3[nH]2)ccc1OC(C)C(=O)O (centres undefined) | 0.1 | -4 | 1 | 0 | 2891 | 0 | -15
CNC(=O)c1cc2c(-c3ccccc3)nn(C)c2s1 | 4.1 | -2 | 4 | -6 | 2964 | -7 | -6
Cn1cccc1/C=N/NC(=O)c1cc(-c2cccs2)nc2ccccc12 | · | · | · | · | 1926 | 12 | -28
COc1ccc(C(C[N+](=O)[O-])n2nc(C)cc2C)cc1 (centres undefined) | 7.8 | -7 | 5 | 1 | 2095 | 2 | -34
CCCCN(C)CCNC(=O)C1CCCN(S(=O)(=O)c2cccc3nsnc23)C1 (centres undefined) | · | · | · | · | 5361 | 13 | -25

Profiles, looked up by structure:
CCCCN(C)CCNC(=O)C1CCCN(S(=O)(=O)c2cccc3nsnc23)C1 (centres undefined) is entered as RN4220 kill: ·; Sa ugtP lethal: ·; Mtb hypoxia inh: ·; Mtb hypoxia inh growth: ·; Autofluor counter: 5361; BJeLR lethal: 13; PrP UTR inh: -25
COc1ccc(NC(=O)COC(=O)CC2CCCCC2)cc1 is entered as RN4220 kill: 1.2; Sa ugtP lethal: 4; Mtb hypoxia inh: 2; Mtb hypoxia inh growth: 3; Autofluor counter: 4180; BJeLR lethal: ·; PrP UTR inh: -29

The results go on.
Compound | RN4220 kill | Sa ugtP lethal | Mtb hypoxia inh | Mtb hypoxia inh growth | Autofluor counter | BJeLR lethal | PrP UTR inh
CCOc1cc(C2NN=C(c3ccccc3)S2)ccc1OCc1ccc(F)cc1 (centres undefined) | 3.0 | -20 | 4 | 9 | 4488 | -2 | -73
CCc1ccc(C(C)=NNc2ccc([N+](=O)[O-])cc2)cc1 | -7.9 | 2 | 6 | 5 | · | · | ·
COc1ccc(N(CC(=O)NCc2ccccc2OC)S(=O)(=O)c2ccccc2[N+](=O)[O-])c(OC)c1 | 5.1 | -2 | -3 | -1 | 4214 | 8 | -23
NC(=O)c1ccc(NC(=O)COC(=O)c2ccc([N+](=O)[O-])cc2)cc1 | 5.4 | 12 | -3 | 0 | 4676 | -3 | 62*
COc1ccccc1Nc1nc(C)c(C(=O)Nc2ccccc2)s1 | 7.7 | -6 | 16 | -1 | 4333 | 19 | 3
NC(=O)C1CCN(C(=O)C(=O)c2cn(CC(=O)N3CCCC3)c3ccccc23)CC1 | 2.5 | 3 | 3 | 1 | 5646 | -1 | -4
COc1ccc(C(=O)NN=Cc2coc3ccc(C)cc3c2=O)cc1 | 2.6 | 13 | 3 | 4 | · | · | ·
CCn1c2ccccc2c2cc(/C=N/NC(=O)c3ccccc3C)ccc21 | · | · | · | · | 7653 | 7 | -24
CCN1C(=O)[C@H]2[C@@H](c3ccc(Cl)cc3)N3C(=O)CN(Cc4ccccc4)C(=O)[C@@]3(C)[C@H]2C1=O | · | · | · | · | 2933 | -4 | -4
CCn1cc(C(=O)N2CCN(c3ccc(OC)cc3)CC2)c(=O)c2cc(S(=O)(=O)N3CCOCC3)ccc21 | 1.8 | 3 | -1 | 0 | 5886 | 8 | -17
